High-throughput results (PubChem)
Mtb hypoxia rep – reduces hypoxia-regulated biosensor signal in M. tuberculosis; 300,000 compounds, 0.1% hits; M. tuberculosis hypoxia-regulated fluorescent reporter, fluorescence; fluorescence inhibition, % (concentration not given with the values);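 active = 35 to 45% if threefold the growth effect, above 45% if 1.5-fold the growth effect; inactive = the rest, general growth blockers included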;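 also: wells of about 50 µL received 100 nL stock; 0% = vehicle wells and 100% = reference inhibitor wells; whole bacteria with a GFP reporter of the hypoxia response; strong numbers were not always called active; many hits fall short of the cut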
BJeLR viability – kills HRASV12-expressing BJeLR cells | BJeLR (HRASV12) viability, CellTiter-Glo ATP luminescence, 48 h; reference of the scale not given here | 300,000 compounds, 0.17% hits | inhibition, % (concentration not given with the values) | AID 1554;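 active = replicate mean above 50%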;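 also: 50 nL library stock added to about 25 µL; numbers are from one replicate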
RN4220 kill – kills Staphylococcus aureus RN4220 | S. aureus RN4220 growth, OD600, 16 h | inhibition, % (concentration not given with the values) | 330,000 compounds, 0.33% hits;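 active = z-score of -3 or lower and OD600 up to 0.18 on both plates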;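 also: plate controls were untreated cells for no effect and reference antibiotic for full effect; stock transfer was 100 nL into about 80 µL; one replicate is shown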
PrP 5UTR inh – suppresses PrP 5' UTR mRNA reporter expression. cell-based PrP 5' UTR mRNA reporter, plate reader. inhibition, % (test concentration not listed). 340,000 compounds, 0.35% hits. AID 488862;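 active = every replicate at 50% or more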;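 also: 0 = median of the neutral control wells; tested in H4 reporter cells; numbers are from one replicate; inactives centre near -14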
ugtP null kill – growth inhibition of S. aureus ugtP deletion strain; S. aureus RN4220 ugtP deletion, OD600 growth, 16 h; some inactives read as strong as hits; growth inhibition, % (concentration not given with the values); 330,000 compounds, 0.54% hits; AID 1259309;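 active = z-score under -3 and OD600 up to 0.15 on both plates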;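 also: plate controls were untreated wells for no effect and antibiotic for full effect; wells of about 80 µL received 100 nL stock; the first replicate is given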
Bead autofluor – flagged as autofluorescent in microsphere protease counterscreen; compound autofluorescence counterscreen, microsphere flow cytometry; hits give high values; fluorescence intensity (test concentration not listed); 360,000 compounds, 3.1% hits;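 active = at least 3 SD above the mean of all compounds, about 16000 in these data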;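 also: 100 nL of 1 mM stock went into each well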
Mtb hypoxia rep growth – also measured in Mtb hypoxia rep; calls as there; growth inhibition, %; measured here: M. tuberculosis growth (absorbance);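 0% = vehicle and 100% = reference antibiotic; read after six days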
An asterisk follows results filed as active; x = no result given.

Start of the data: the first three records, ahead of the listing:
SMILES	Mtb hypoxia rep	Mtb hypoxia rep growth	BJeLR viability	RN4220 kill	PrP 5UTR inh	ugtP null kill	Bead autofluor
CC(C)c1nnc(NC(=O)CSc2ccccc2)s1	x	x	-4.3	3.0	-24.3	1.1	2724
Cc1cc(OC(=O)c2cccc(Br)c2)c([N+](=O)[O-])c(=O)[nH]1	7.0	1.0	2.2	2.2	5.3	4.4	4497
Cc1ccc(Sc2ncccc2C(=O)O)cc1	12.2	7.4	6.2	8.3	-10.5	6.4	2741

Results, from the first entry:
SMILES	Mtb hypoxia rep	Mtb hypoxia rep growth	BJeLR viability	RN4220 kill	PrP 5UTR inh	ugtP null kill	Bead autofluor
CC(C)c1nnc(NC(=O)CSc2ccccc2)s1	x	x	-4.3	3.0	-24.3	1.1	2724
Cc1cc(OC(=O)c2cccc(Br)c2)c([N+](=O)[O-])c(=O)[nH]1	7.0	1.0	2.2	2.2	5.3	4.4	4497
Cc1ccc(Sc2ncccc2C(=O)O)cc1	12.2	7.4	6.2	8.3	-10.5	6.4	2741
CCCCCC1CCC(c2n[nH]c(=S)n2C)CC1 (stereo unspecified)	6.6	5.5	-4.9	0.8	3.3	6.8	4066
O=C(Nc1ccc(Cl)cc1)N(CCCN1CCOCC1)Cc1cccs1	-4.7	4.6	6.5	0.4	-21.6	6.4	5765
COc1ccc(C(C(=O)NC(C)(C)C)N(C[C@H]2CC[C@@H]([C@@H]3CC[C@H](CO)O3)O2)C(=O)c2ccccc2)cc1 (stereo partly specified)	1.2	5.7	x	4.1	-10.2	-4.1	3913
CCCCC(=O)Nc1ccc2c(c1)nc1n2CCOC1	-16.1	-3.1	-2.0	2.8	-32.6	0.8	10010
O=C(O)C1CCCN1c1ncccn1 (stereo unspecified)	-2.4	7.6	-1.7	2.7	-22.9	0.6	10840
COc1ccc(S(=O)(=O)Nc2cccc(C)c2C)c2cccnc12	-10.1	-8.3	5.4	1.6	-25.3	-7.7	3427
CCOC(=O)C1CCN(CC(=O)N(CC(C)C)c2c(N)n(CC(C)C)c(=O)[nH]c2=O)CC1	8.7	5.5	5.4	2.6	-12.3	-10.4	4103
CC(Nc1ccc(F)cc1)=[N+](C)CCNS(=O)(=O)c1ccc(Cl)cc1	10.1	1.0	5.8	2.6	-13.7	8.0	4352
NS(=O)(=O)c1ccc(NS(=O)(=O)/C=C/c2ccccc2)cc1	3.8	2.4	-5.3	2.5	-6.6	7.0	7650
COc1cccc(CC2(CO)CCCN(Cc3sc(N4CCCC4)nc3Cl)C2)c1 (stereo unspecified)	-7.4	7.2	-1.3	2.9	-10.6	2.1	14488
CCN(Cc1ccccc1)C(=O)c1ccc(CS(=O)c2ccccc2C)o1 (stereo unspecified)	4.4	6.2	-5.1	5.9	-13.1	6.9	5131
COc1ccccc1NC(=O)COC(=O)C1CC2C=CC1C2 (stereo unspecified)	7.2	7.7	1.9	0.7	-16.9	-1.0	4062
O=C(NN=Cc1ccc(F)cc1)c1c(O)c2ccccc2[nH]c1=O	12.4	4.9	x	5.5	x	7.7	x
CC(=O)Nc1cccc(C(C)=NN2C(C)CCCC2C)c1 (stereo unspecified)	8.5	-4.3	x	2.1	x	-1.8	x
CCSc1nnc(NC(=O)c2ccc3nc[nH]c3c2)s1	10.0	7.5	x	2.3	-35.5	-1.9	4037
C#CCOC1CC(n2cnc3c(NC(=O)c4ccccc4)ncnc32)OC1CO (stereo unspecified)	20.8	8.2	x	7.5	x	2.9	x
CCN(CC)CC(=O)NC1CC(C)(C)Cc2c1cnn2-c1ccc(F)cc1 (stereo unspecified)	0.9	14.4	-2.1	1.8	-9.5	5.6	4045

6 structures already listed, sorted by molar mass, high to low.
SMILES	Mtb hypoxia rep	Mtb hypoxia rep growth	BJeLR viability	RN4220 kill	PrP 5UTR inh	ugtP null kill	Bead autofluor
COc1ccc(C(C(=O)NC(C)(C)C)N(C[C@H]2CC[C@@H]([C@@H]3CC[C@H](CO)O3)O2)C(=O)c2ccccc2)cc1 (stereo partly specified)	1.2	5.7	x	4.1	-10.2	-4.1	3913
O=C(Nc1ccc(Cl)cc1)N(CCCN1CCOCC1)Cc1cccs1	-4.7	4.6	6.5	0.4	-21.6	6.4	5765
C#CCOC1CC(n2cnc3c(NC(=O)c4ccccc4)ncnc32)OC1CO (stereo unspecified)	20.8	8.2	x	7.5	x	2.9	x
CC(Nc1ccc(F)cc1)=[N+](C)CCNS(=O)(=O)c1ccc(Cl)cc1	10.1	1.0	5.8	2.6	-13.7	8.0	4352
COc1ccccc1NC(=O)COC(=O)C1CC2C=CC1C2 (stereo unspecified)	7.2	7.7	1.9	0.7	-16.9	-1.0	4062
O=C(O)C1CCCN1c1ncccn1 (stereo unspecified)	-2.4	7.6	-1.7	2.7	-22.9	0.6	10840

(more compounds)
SMILES	Mtb hypoxia rep	Mtb hypoxia rep growth	BJeLR viability	RN4220 kill	PrP 5UTR inh	ugtP null kill	Bead autofluor
COc1ccc(C(CC(=O)NCC(OC)OC)NS(=O)(=O)c2ccc(Cl)cc2)cc1 (stereo unspecified)	5.2	2.9	6.2	1.1	-67.1	9.3	3962
COc1ccc(NC(=O)COc2ccc(N(C)S(=O)(=O)c3ccc(C)cc3)cc2)cc1	2.1	0.6	12.4	-11.0	-13.7	-3.7	2609
CC(C)Cc1nc2oc3c(NCCCN4CCOCC4)ncnc3c2c2c1CCC2	7.6	8.2	9.2	1.2	4.8	6.5	23301*
O=C(C1CCCCN1S(=O)(=O)c1ccccc1)N1CCN(Cc2ccccc2)CC1 (stereo unspecified)	13.9	1.4	1.0	-1.0	-3.7	4.7	9555
CCn1c(SCC(=O)c2ccccc2)nnc1-c1ccoc1C	-3.0	11.0	3.8	-1.9	-17.1	-6.9	4724
COc1cc(C=NNC(=O)CC2(C)OCCCO2)ccc1OCc1ccc(Cl)cc1Cl	10.3	9.6	x	5.2	x	-12.6	x
CC1=C(C(N)=O)C(c2cccc(O)c2)n2nc(CCCO)nc2N1 (stereo unspecified)	x	x	1.9	-0.4	-29.4	15.7	5644
COc1cccc(-c2nc3ccccc3c(=O)n2NC(=O)c2cccnc2Cl)c1	11.0	3.6	-4.7	25.5	-7.1	7.2	2322
COc1ccccc1C1N(c2ccc(F)cc2)C(=O)C2CCCN21 (stereo unspecified)	7.7	3.6	-15.7	1.1	-19.3	-1.9	10158
Cc1ccc(NC(=O)CCC(=O)Nc2nnc(C3CCCCC3)s2)cc1	-11.2	-9.4	-10.9	2.3	-12.7	5.7	4387
COCCN1CN=C(Nc2nc3ccccc3s2)NC1	x	x	5.0	3.1	-37.3	-2.7	2786
COC(=O)C1=C(c2ccc(F)cc2OCc2ccccc2)CC2CCC1N2C(=O)NCCN1CCOCC1 (stereo unspecified)	-4.0	-1.4	x	2.8	x	-0.1	x
O=C(CCCCCn1nnc2ccccc2c1=O)N[C@H](C(=O)O)c1ccccc1	5.5	-2.6	1.7	4.1	-13.3	-3.2	3798
O=C(NC1CCN(C(=O)Nc2cccc(F)c2)CC1)c1ccco1	x	x	-16.7	x	-26.6	x	3356
COc1ccc2c(c1)C(=NNC(=O)c1ccccn1)c1cc(OC)ccc1-2	1.8	7.6	9.2	20.7	-16.2	-5.9	2196
Cc1ccc2nc(/C(C#N)=C\c3cc(C)n(-c4cccc([N+](=O)[O-])c4)c3C)[nH]c2c1	5.7	1.9	6.1	-3.4	-13.2	-11.7	16239*
CC(=NOC(=O)c1c(F)cccc1F)c1nccs1	-5.5	7.6	x	6.0	x	-5.5	x
CCOC(=O)CSC1=C(C#N)C(c2ccc3c(c2)OCO3)CC(=O)N1 (stereo unspecified)	5.4	4.6	-2.4	3.1	-7.4	8.2	4109
Cc1cc(NC(=O)c2ccc(Cl)cc2)c(C(C)C)cc1O	11.6	10.2	0.9	5.0	-17.4	-7.5	9137
COc1ccc(C(=O)N2CC3(C)CC2CC(C)(C)C3)cc1OC (stereo unspecified)	x	x	0.8	-1.2	-12.8	-8.1	2233
CC1C(=NO)CC(c2ccccc2)N(C)C1c1ccccc1 (stereo unspecified)	10.7	-2.5	x	-2.9	x	3.8	x
O=C(CSc1nnc(C2CC2)n1-c1ccccc1)N1CCCC1	1.6	1.5	x	5.1	-22.1	5.3	2926
CCOc1ccc(/C=C2/SC(=S)N(CCC(=O)Nc3ccc(C(=O)O)cc3)C2=O)cc1	-0.5	0.0	-2.7	18.6	-22.6	32.9	4368
CCCc1cc(=O)[nH]c(SCc2ccc(F)cc2)n1	15.3	1.6	-13.8	3.2	-19.2	1.1	4357
COc1cc(CCC(=O)NCCc2ccc(F)cc2)cc(OC)c1OC	1.3	1.5	-9.4	-1.7	-15.6	2.6	4785
CN(/N=C/c1ccc(Br)o1)C1=NS(=O)(=O)c2ccccc21	x	x	-0.8	x	-4.4	x	4519
O=C(Nc1ccc(C(=O)N2CCOCC2)cc1)Nc1cccc2ccccc12	1.9	-3.4	2.8	4.5	-18.7	1.5	4561
Cc1nn(CCc2nn[nH]n2)c2nc(-c3ccccc3)cc(C(F)(F)F)c12	13.9	3.2	-9.7	8.5	-5.2	-5.0	2579
O=C(COC(=O)c1ccccc1O)NCCC1=CCCCC1	11.2	0.2	1.7	-1.8	-17.4	5.5	4726
CCC(C)NC(=O)/C=C/c1ccc(S(=O)(=O)NCc2ccco2)cc1 (stereo unspecified)	13.4	0.2	-5.4	15.4	-5.1	3.7	3313
CCN(Cc1ccccc1)C(=O)Cn1c(C(C)O)nc2ccccc21 (stereo unspecified)	-2.4	-4.4	14.0	3.5	-13.8	2.6	4164
Cc1ccnc(NC(=O)CNC(=O)C23CC4CC(CC(C4)C2)C3)c1	0.6	6.4	-9.6	-1.4	-11.1	2.6	5845
CCN(CC)C(=O)Cn1cc([N+](=O)[O-])cc1[N+](=O)[O-]	15.0	11.2	x	0.6	-6.9	-0.3	3664
Cc1ccc(OCC(=O)Nc2ccccc2[N+](=O)[O-])c(Br)c1	3.5	3.0	1.5	2.4	-70.6	-0.4	3627
O=C(Nc1ccc2oc(-c3ccncc3)nc2c1)c1ccc2c(c1)OCCO2	-5.4	2.9	-2.8	5.9	2.2	3.8	3854
O=c1[nH]c2ccccc2cc1CN(Cc1ccco1)S(=O)(=O)c1ccc(F)cc1	3.3	12.2	-1.8	5.2	-1.3	-1.3	6009
CCNC(=O)NC(=O)C(C)OC(=O)c1c(C)nn(Cc2ccccc2Cl)c1Cl (stereo unspecified)	-1.2	5.2	3.0	3.1	-19.3	19.5	2450
CN(C)CCCN(C(=O)COc1ccc(Cl)cc1)c1nc2c(F)cccc2s1	10.9	5.7	-1.4	0.8	0.5	-5.4	5416
CC1C(=O)C(C)C(c2ccc(O)cc2)NC1c1ccc(O)cc1 (stereo unspecified)	-1.6	4.1	-5.3	3.1	-16.8	6.0	3774
Cc1nnc(NC(=O)C2CCCN2C(=O)Nc2ccccc2)s1 (stereo unspecified)	0.0	-1.3	5.8	1.2	1.5	3.4	3108
O=C(CCS(=O)(=O)c1cc2c(cc1Cl)NC(=O)CO2)NCc1ccc(F)cc1	x	x	-5.1	2.1	-11.2	-12.5	5811
COc1ccc(S(=O)(=O)N2CCCCC2)cc1-n1cnnn1	-2.2	5.1	-2.9	0.1	-17.9	-0.8	3370
O=C(Cn1c(=O)n(Cc2ccco2)c(=O)c2c3c(sc21)CCCCC3)c1ccccc1	0.9	9.7	18.9	-2.2	-14.2	-6.9	7977
CCOC(=O)C1CCN(C(=O)c2cc3c(ccc4ccccc43)o2)CC1	3.7	1.5	3.3	3.6	-42.5	7.6	5515
COc1ccc(-c2csc(N(Cc3ccco3)C(=O)c3cccs3)n2)cc1	11.1	2.1	9.5	-6.2	-43.7	15.6	4258
CC1(C)CC(NC(=S)Nc2ccc([N+](=O)[O-])cc2)CC(C)(C)N1	4.4	7.2	0.8	3.9	12.4	-0.5	4266
CCC(=O)Nc1ccc(C(=O)N/N=C/c2ccccc2[N+](=O)[O-])cc1	x	x	21.4	x	-21.7	x	23894*
